# From PubChem BioAssay
# GLA inh pH 4.5 – inhibitors of human alpha-galactosidase A at pH 4.5. activity change, negative = inhibition, % at 105 µM. P06280. purified enzyme, 4-MU-alpha-Gal fluorescence, pH 4.5. 230,000 tested, under 10 active; inconclusive = small, poorly fitted or top-dose-only inhibition, or a rising curve; inactive = flat fitted curve, though single readings scatter; no compound was filed as active;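 note: 0% = full activity with enzyme and -100% = basal without enzyme; dose as in the result columns while the protocol names 77 µM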
# Rango complex inh – inhibitors of Rango-importin beta complex formation. hit rate 0.031% among 340,000. Potency, µM (series often up to 92.2 µM), for the others: top-dose inhibition of complex formation. Rango CFP/YFP FRET sensor + importin beta, 45 min. Q14974; active = rising FRET ratio curve, often small or poorly fitted; inconclusive = mostly compound fluorescence or quenching in the first reads; inactive = flat curves in all reads;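 note: potency is the fitted concentration of half-maximal effect; 0% = DMSO wells and 100% = buffer wells lacking importin beta; nearly all actives have a fitted effect of over 15% in size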
# Target sequence (Q14974 whole entry, looked up): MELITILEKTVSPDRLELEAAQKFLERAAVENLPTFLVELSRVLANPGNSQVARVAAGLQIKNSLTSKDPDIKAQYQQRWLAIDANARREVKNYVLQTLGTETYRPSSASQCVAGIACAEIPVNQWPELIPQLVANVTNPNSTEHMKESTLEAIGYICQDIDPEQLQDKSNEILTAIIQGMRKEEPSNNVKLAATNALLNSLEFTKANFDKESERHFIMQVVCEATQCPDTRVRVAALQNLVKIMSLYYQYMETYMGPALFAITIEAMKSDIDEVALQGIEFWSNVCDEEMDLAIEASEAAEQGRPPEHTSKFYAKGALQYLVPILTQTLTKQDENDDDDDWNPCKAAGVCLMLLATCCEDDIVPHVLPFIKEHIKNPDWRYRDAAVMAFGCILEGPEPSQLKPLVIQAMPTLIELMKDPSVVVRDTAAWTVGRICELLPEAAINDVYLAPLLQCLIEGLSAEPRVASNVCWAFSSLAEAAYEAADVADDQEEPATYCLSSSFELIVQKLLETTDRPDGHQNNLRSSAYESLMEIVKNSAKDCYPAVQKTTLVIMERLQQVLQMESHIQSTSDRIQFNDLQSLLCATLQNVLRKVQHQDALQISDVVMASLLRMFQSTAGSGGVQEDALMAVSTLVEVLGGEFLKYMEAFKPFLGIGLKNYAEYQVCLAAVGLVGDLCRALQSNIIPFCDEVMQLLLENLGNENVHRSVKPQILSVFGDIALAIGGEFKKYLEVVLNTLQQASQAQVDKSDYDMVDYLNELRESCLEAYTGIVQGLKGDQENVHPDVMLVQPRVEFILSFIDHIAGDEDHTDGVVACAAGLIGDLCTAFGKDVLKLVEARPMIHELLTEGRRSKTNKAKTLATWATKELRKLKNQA
#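 Inhibition scored from the CFP 486 nm/YFP 530 nm FRET ratio 45 min after adding 0.125 microM importin beta to 50 nM Rango biosensor preincubated 5 min with compound (room temperature, PBS with DTT, Tween-20, BSA). No-importin wells as positive control.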
# miR-21 reporter – raises the signal of a miR-21 reporter; HeLa miR-21 FLuc reporter, luciferase, 48 h; Potency, µM (doses to about 38.3 µM), without a hit: at the highest dose reporter change, positive = more light; 340,000 tested, under 10 active; AID 2288; active = well fitted rising curve with a large enough effect; inconclusive = small, poorly fitted or top-dose-only effect; inactive = no such curve, though single readings can be large or run the other way;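 note: % of control where 0% means no effect; miR-21 action dims this reporter so a rising signal means less miR-21 action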
#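 HeLa miR-21-FLuc reporter line, endogenous miR-21; 2000 cells/well in DMEM/10% FBS; compound titration up to ~40uM final, 48 h, 37 degree Celsius; luciferase detection reagent, 15 min lysis, CCD luminescence.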
# Rango release inh – inhibition of RanGTP-driven Rango-importin beta dissociation; O95149+P62826; Biochemical FRET Rango-importin beta, RanGTP-induced dissociation; Potency, µM (titrated, usually from 46.1 µM), for the others: at the highest dose activity change, negative = inhibition; hit rate 0.071% among 340,000; active means falling FRET ratio curve, often poorly fitted, with flat reads before Ran was added; inconclusive means other falling curves, or compound fluorescence or quenching; inactive means flat or rising ratio curve;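 note: potency is the fitted concentration of half-maximal effect; % of control where 0% means no effect; nearly all actives have a fitted effect of over 45% in size; -100% = wells without RanGTP and RCC1; the record marks most hits as doubtful in a second field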
#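 FRET read at 45 min, room temperature: inhibitors block the CFP/YFP signal rise when RanGTP (0.6 uM Ran, 2 mM GTP, 0.2 uM RCC1) frees Rango (0.1 uM) from importin beta (0.25 uM). Pre-read after 5 min compound exposure flags interference.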
# Active calls of the source: *; ? = inconclusive; . = no result given.
SMILES,GLA inh pH 4.5,Rango complex inh,miR-21 reporter,Rango release inh
CCn1c(C)nc2cc(C(=O)NN=C(C)c3ccc(C#N)cc3)ccc21,.,-3.8%,.,12%
Cc1ccccc1OCCC(=O)OCC(=O)c1c(N)n(CC(C)C)c(=O)n(C)c1=O,.,3.6%,.,9%
CC1CC(C)CN(C(=O)CSc2nnc(-c3ccc(Cl)cc3)o2)C1 (stereo not given),-2,-1.2%,3%,-15%
CCN(C(=O)c1ccnc(C(C)(C)C)c1)c1ccccc1,-1,5.2%,-1%,-7%
Cc1ccc2nc(-c3ccncc3)cc(C(=O)Nc3ccc4c(c3)OCCO4)c2c1,-3,-1.1%,13%,6%
CCOC(=O)C(C)n1nc(C)c2sc3ccccc3c2c1=O (stereo not given),.,-0.9%,-6%,2%
NC(=O)c1ccccc1NC(=O)C1CCCO1 (stereo not given),.,0.5%,-2%,-3%
COc1ccccc1Nc1ncnc2c1oc1ccccc12,8,-0.2%,-68%,-12%
O=C(Nc1ccc(N2CCN(C(=O)c3ccco3)CC2)cc1)c1cccc(F)c1,-2,5.0%,-5%,2%
COc1ccc(C(=O)C[n+]2cccc(Br)c2)cc1,-6,1.7%,-1%,1%
O=C(c1ccc(Cl)cc1)c1cc(-c2ccccn2)c(N2CCOCC2)s1,-8,?,-2%,?
O=C(Cn1cnc2ccccc2c1=O)Nc1ccc2c(c1)OCO2,1,?,-57%,9%
COCCCNC(=O)Nc1ccc2c(c1)N(C)C(=O)CS2,0,5.6%,-1%,6%
CCOc1nc(-c2ccccc2)c2cc(C)ccc2n1,.,-1.3%,-1%,-17%
COc1cc(C2c3cc4c(cc3C(OC3OC5COC(c6cccs6)OC5C(O)C3O)C3COC(=O)C23)OCO4)cc(OC)c1O (stereo not given),-2,0.1%,?,-5%

# Reformatted as tab-separated lines: part of the list above.
mol	GLA inh pH 4.5	Rango complex inh	miR-21 reporter	Rango release inh
Cc1ccccc1OCCC(=O)OCC(=O)c1c(N)n(CC(C)C)c(=O)n(C)c1=O	.	3.6%	.	9%
CC1CC(C)CN(C(=O)CSc2nnc(-c3ccc(Cl)cc3)o2)C1 (stereo not given)	-2	-1.2%	3%	-15%

# (list continues)
SMILES,GLA inh pH 4.5,Rango complex inh,miR-21 reporter,Rango release inh
Cc1sc2nc(CSCC(=O)Nc3ccc(C(F)(F)F)cc3)[nH]c(=O)c2c1C,.,-2.1%,.,-11%
CCOc1ccc(-c2ccc(NS(=O)(=O)c3cc([N+](=O)[O-])c(C)c([N+](=O)[O-])c3)cc2)nn1,.,-0.5%,-2%,1%
COc1cc(Nc2nc3c(N)cc(C(F)(F)F)cc3nc2-c2ccccc2)cc(OC)c1OC,.,?,.,4%
CC(C)NC(=O)c1ccc(Cl)cc1Cl,10,-3.2%,-7%,-9%
Cc1nnc(NC(=O)CSc2nnc(CC(=O)Nc3ccccc3Cl)n2C)s1,.,0.1%,-15%,-3%
FC(F)(F)c1cc(-c2cccs2)nc2cc(-c3ccccc3)nn12,2,?,-12%,?
Cc1ccc(C(=O)N/C(=C\c2cccs2)C(=O)NCc2cccnc2)cc1,-5,?,-6%,?
C(=N\Nc1nccc(-c2cccnc2)n1)/c1ccccc1,1,1.0%,-8%,14%
COc1ccc(CCN(Cc2ccccn2)C(=S)Nc2ccc(C)cc2)cc1OC,-9,-4.4%,0%,27%
CC1=C(C(=O)Nc2ccc(C)cc2)C(c2cccs2)NC(=S)N1 (stereo not given),5,1.2%,-31%,-5%
O=C(O)CNC(=S)NCc1ccccc1,-5,3.3%,-3%,6%
Cc1ccc(N(Cc2ccccc2)C(=O)c2ccc(F)cc2)cc1,.,-3.9%,-2%,11%
CCn1c(CN2CCN(c3ccc(Cl)cc3)CC2)nc2ccccc21,-4,-0.9%,19%,8%
COc1ccc2[nH]c(=O)c(CN(C(=O)c3ccco3)C3CCCCC3)cc2c1,2,0.2%,0%,1%
CCCCCCCCn1c2c(c(=N)c3c1CCC3)CCCC2,2,1.5%,?,-23%

# Entries of single compounds, looked up by structure.
# COc1ccc(CCN(Cc2ccccn2)C(=S)Nc2ccc(C)cc2)cc1OC across the screens: GLA inh pH 4.5 = -9; Rango complex inh = -4.4%; miR-21 reporter = 0%; Rango release inh = 27%
# Cc1nnc(NC(=O)CSc2nnc(CC(=O)Nc3ccccc3Cl)n2C)s1 across the screens: GLA inh pH 4.5 = .; Rango complex inh = 0.1%; miR-21 reporter = -15%; Rango release inh = -3%

# Additional entries:
SMILES,GLA inh pH 4.5,Rango complex inh,miR-21 reporter,Rango release inh
C=CCc1cc(/C=C/c2nc(O)c([N+](=O)[O-])c(=O)[nH]2)cc(OC)c1O,-11,-1.1%,-2%,-5%
NC(N)=N/N=C(\N=Nc1ccccc1)c1cccc2cccnc12,.,0.2%,.,-6%
O=C1Nc2ccccc2C1(O)Cc1ccccn1 (stereo not given),-1,4.0%,0%,1%
CCCc1ccc(OCc2ccc(C(=O)OC)o2)c(OC)c1,-7,0.9%,-61%,12%
CCn1cc([N+](=O)[O-])c(C(=O)N2N=C(c3cccc4ccccc34)CC2c2ccccc2O)n1 (stereo not given),-22,0.2%,1%,2%
CCOc1ccccc1N1CCN(C(=O)c2ccc(NS(=O)(=O)c3ccc4[nH]c(=O)[nH]c4c3)cc2)CC1,.,-4.9%,.,-1%
CCC(CC)c1nnc(NC(=O)CCCN2C(=O)c3ccccc3C2=O)s1,0,?,-2%,3%
O=C(COC(=O)COc1ccc2c(c1)CCC2)Nc1ccccc1,.,-1.7%,.,9%
COC(=O)CCNC(=O)c1nn(Cc2ccccc2)c(=O)c2ccccc12,.,0.8%,11%,7%
O=Cc1cnc(N2CCOCC2)nc1,1,-4.4%,1%,-13%
O=C(CSc1nnc2ccccn12)Nc1cccc(-c2nc3ccccc3s2)c1,6,-3.4%,-40%,13%
CCOc1ccc(OCCn2nnc3ccccc3c2=O)cc1,-13,1.9%,-73%,-8%
Cc1ccccc1NC(=S)NCCSc1ccc(Cl)cc1,-4,0.4%,6%,8%
CCc1ccc[n+](-c2[nH]c(=O)sc2/C=N/NC([S-])=Nc2ccccc2)c1,-12,?,-1%,-8%
CCCNC(=O)c1ccccc1NC(=O)Nc1ccccc1C,12,-2.2%,0%,0%

# Given field by field: entries from further up.
> CCOc1ccc(OCCn2nnc3ccccc3c2=O)cc1
  GLA inh pH 4.5: -13
  Rango complex inh: 1.9%
  miR-21 reporter: -73%
  Rango release inh: -8%
> Cc1ccccc1NC(=S)NCCSc1ccc(Cl)cc1
  GLA inh pH 4.5: -4
  Rango complex inh: 0.4%
  miR-21 reporter: 6%
  Rango release inh: 8%
> CCc1ccc[n+](-c2[nH]c(=O)sc2/C=N/NC([S-])=Nc2ccccc2)c1
  GLA inh pH 4.5: -12
  Rango complex inh: ?
  miR-21 reporter: -1%
  Rango release inh: -8%
> O=Cc1cnc(N2CCOCC2)nc1
  GLA inh pH 4.5: 1
  Rango complex inh: -4.4%
  miR-21 reporter: 1%
  Rango release inh: -13%

# Part of the list above with just Rango complex inh and Rango release inh.
canonical_smiles	Rango complex inh	Rango release inh
NC(N)=N/N=C(\N=Nc1ccccc1)c1cccc2cccnc12	0.2%	-6%
O=C1Nc2ccccc2C1(O)Cc1ccccn1 (stereo not given)	4.0%	1%
CCCc1ccc(OCc2ccc(C(=O)OC)o2)c(OC)c1	0.9%	12%

# Remaining list, next part:
SMILES,GLA inh pH 4.5,Rango complex inh,miR-21 reporter,Rango release inh
CC1=C[C@H]2Cc3cc(C)cc(C)c3S(=O)(=O)[C@@H]2C=C1,-2,-1.6%,0%,-1%
CCOC(=O)C1(CC2CC2)CCN(Cc2cn[nH]c2-c2ccccc2)CC1,-4,0.7%,0%,19%
CCc1nc(SCC(=O)Nc2ccc(N(C)C)cc2)n[nH]1,.,4.8%,.,-11%
Cc1ccc(S(=O)(=O)/N=C/c2c(O)ccc3ccccc23)cc1,.,?,3%,-14%
Cc1nc(N2CCN(Cc3nc4ccccc4[nH]3)CC2)c2oc3ccccc3c2n1,2,?,4%,2%
CC1(C)CC(N2CCN(CCO)CC2)=CC(=S)N1,0,-0.1%,0%,?
COc1ccccc1CCNC(=O)c1nc(-c2cccs2)no1,0,-0.7%,-53%,1%
COc1ccc([N+](=O)[O-])cc1N(CC(=O)Nc1ccccc1C(=O)NC(C)C)S(C)(=O)=O,0,-0.4%,0%,3%
COc1ccc(C(=O)Nc2ccc(NC(=O)c3ccccc3)cc2)cc1S(=O)(=O)N1CCOCC1,.,-0.2%,4%,-5%
O=C(O)c1ccccc1N=Nc1ccc(O)cc1,.,0.6%,.,11%
CCOC(=O)C1=NOC2C3CC(C12)C1C(=O)N(CCc2ccc(OC)c(OC)c2)C(=O)C31 (stereo not given),12,0.2%,0%,-13%
CC(C)CC(=O)NC(=S)Nc1ccc(N2CCN(C(=O)c3cccs3)CC2)cc1,-6,-0.5%,20%,-11%
O=C(Cn1cc(SCc2ccc(F)cc2)c2ccccc21)N1CCOCC1,-4,-0.6%,-30%,-9%
CN(C)S(=O)(=O)c1ccc(Cl)c(NC(=O)C2CCN(S(=O)(=O)c3cccs3)CC2)c1,.,1.2%,.,6%
COc1ccccc1Nc1cc(C(=O)N2CCc3ccccc3C2)c2ccccc2n1,-5,.,-1%,.
COc1cccc(NC(=O)CNC(=O)c2ccc(OC)c(OC)c2)c1,-2,1.3%,-2%,-13%
COCCn1c(C)c(C)c2c(NCCc3ccccc3)ncnc21,.,-0.4%,-13%,3%
COc1ccc(C2=NS(=O)(=O)N(C)C(C(=O)N3CCOCC3)=C2)cc1OC,.,2.4%,-3%,1%
O=C(Nc1cc(Cl)ccc1N1CCOCC1)c1cc2ccccc2o1,.,4.9%,-5%,12%
CCn1cc(/C=C(\NC(=O)c2ccc(OC)cc2)C(=O)N2CCN(C)CC2)c2ccccc21,.,-1.8%,-3%,-10%
O=C(CCc1ccccc1)N=C1SC2CS(=O)(=O)CC2N1Cc1ccccc1 (stereo not given),.,0.5%,1%,4%
CC1(C)CC(=O)CC(=Nc2ccc3[nH]c(=O)[nH]c3c2)C1,-20,?,5%,-3%
O=C(Nc1ccccc1C(=O)N1CCOCC1)c1cc2ccccc2o1,.,0.0%,4%,15%
COc1c2ccc(C(=O)NCCCCc3ccccc3)cc2nn1C,4,-2.5%,-8%,0%
COc1cc(/C=C2\SC(=S)N(N3CCOCC3)C2=O)ccc1O,3,2.7%,1%,2%
O=C(Nc1cc(C(F)(F)F)ccc1N1CCOCC1)c1c(F)c(F)c(F)c(F)c1F,-1,0.7%,-1%,-9%
Cc1cc(=O)oc2c3c(cc(OCC(=O)NCc4ccccn4)c12)OC(C)(C)CC3,.,1.1%,-13%,-3%
CN(C)Cc1nc2c(c(=O)[nH]1)C(C)(C)Cc1ccccc1-2,0,6.1%,0%,6%

# A portion of the library; rates above refer to the full screens.
